Bioassay records from PubChem BioAssay.
ClpP mod – qHTS Assay for Activators of ClpP; purified B. subtilis ClpP, FRET peptide cleavage, 20 min; actives 1.9% (n = 340,000); Potency, µM (highest dose often 57.5 µM), for the others: at the top dose activity change, negative = active; AID 651965, 2013; ATP-dependent Clp protease proteolytic subunit (Bacillus subtilis (strain 168)), P80244; active = well fitted falling curve with a large enough effect; inconclusive = small, poorly fitted or top-dose-only effect; inactive = no such curve, though single readings can be large or run the other way; also: potency is read from the fitted curve at half-maximal effect; the source files actives as falling curves though it sought activators and does not explain the sign; nearly all actives have a fitted effect of over 65% in size; many hits overshoot -100%
Target sequence (P80244 whole entry, looked up): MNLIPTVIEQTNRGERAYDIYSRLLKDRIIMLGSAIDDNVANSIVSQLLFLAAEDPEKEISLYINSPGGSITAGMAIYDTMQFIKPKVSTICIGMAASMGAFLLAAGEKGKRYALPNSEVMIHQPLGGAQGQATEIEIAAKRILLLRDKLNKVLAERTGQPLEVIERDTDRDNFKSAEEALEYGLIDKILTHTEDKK
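Purified B. subtilis ClpP, 10 microg/mL final in Tris/HCl pH8 with KCl, BSA, glycerol and Tween-20, cleaved an Abz/nitrotyrosine-quenched decapeptide. Fluorescence (ex 320, em 430) was read at 0 and 20 min at room temperature. Delta was normalized to 5.8 microM ADEP and DMSO/no-enzyme controls.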
TRPML1 inh – qHTS for Inhibitors of the Human Mucolipin Transient Receptor Potential 1 (TRPML1). TRPML1-inducible cells, Ca2+ dye fluorescence, FDSS; active compounds read low; inhibition of EC80 agonist-evoked calcium signal. activity change, negative = inhibition, % (no concentration beside the values). actives 0.02% (n = 390,000). AID 624415, 2012; in the data active means activity change below about -50%; inconclusive means about -30% to -50%; inactive means above about -30%;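 also: stimulus is agonist 54-4 at its EC80 concentration; % is scaled to controls: 0 for no effect and ±100 for the full control effect; compound concentration not given in the record; the text of the record puts the active cut at -80%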
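TRPML1-DL cells, Tet-induced overnight (~16 h, 37 °C) at 1,500 cells/well, were loaded with Ca8 no-wash dye plus quencher for 45-90 min at room temperature. Compounds were pinned during FDSS kinetic reading; agonist 54-4 at EC80 (4 uM final) then added.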
TRPML1 ag – qHTS for Agonists of the Human Mucolipin Transient Receptor Potential 1 (TRPML1). Mucolipin-1 (Homo sapiens), Q9GZU1. TRPML1-expressing cells, Ca2+ dye fluorescence, FDSS; host cell line not named in the record; reference of the full effect not given here. activation, % (concentration not given with the values). actives 0.12% (n = 410,000). AID 624414, 2012; in the data active = activation above about 50%; inconclusive = about 30% to 50%; inactive = below about 30%; also: 0% is about no effect; the text of the record puts the active cut at 80%
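TRPML1-DL cells, Tet-induced overnight (~16 h, 37 degrees C), loaded 45-90 min at room temperature with Ca8 no-wash calcium dye plus quencher. FDSS fluorescence: 10 s baseline, compound pin-transfer, 110 s agonist read, then EC80 54-4 (4uM final) and 110 s antagonist read.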
Menin-MLL FL inh – qHTS Assay for Inhibitors Targeting the Menin-MLL Interaction in MLL Related Leukemias: Competition With Fluorescein Labeled MLL-derived Peptide | Fluorescence polarization, fluorescein-MLL peptide displacement from menin | FP activity change, % at 61.4 µM | 290,000 tested, under 10 active | AID 1766, 2009; inconclusive = falling polarisation curve, or a change in total fluorescence; inactive = total fluorescence flat and polarisation flat or rising; no compound was filed as active; the % refers to the polarisation; negative = inhibition;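 also: % of control where 0% means no effect; inhibitors lower the polarisation; unlabelled MLL peptide was the positive control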
TRPV1 potentiator – HTS Assay for Compounds that Act as Potentiators of the Vanilloid Receptor 1; TRPV1-expressing cells, Fluo-8 calcium influx, capsaicin EC20 potentiation; host cell line not named in the record; control for the full effect not named in the record; actives 0.02% (n = 320,000); AID 540277, 2011; potentiation, % at 8.33 µM; active means potentiation above 80%; inconclusive means 30% to 80%; inactive means below 30%; also: 0% is about no effect
Target sequence (Q8NER1 whole entry, looked up): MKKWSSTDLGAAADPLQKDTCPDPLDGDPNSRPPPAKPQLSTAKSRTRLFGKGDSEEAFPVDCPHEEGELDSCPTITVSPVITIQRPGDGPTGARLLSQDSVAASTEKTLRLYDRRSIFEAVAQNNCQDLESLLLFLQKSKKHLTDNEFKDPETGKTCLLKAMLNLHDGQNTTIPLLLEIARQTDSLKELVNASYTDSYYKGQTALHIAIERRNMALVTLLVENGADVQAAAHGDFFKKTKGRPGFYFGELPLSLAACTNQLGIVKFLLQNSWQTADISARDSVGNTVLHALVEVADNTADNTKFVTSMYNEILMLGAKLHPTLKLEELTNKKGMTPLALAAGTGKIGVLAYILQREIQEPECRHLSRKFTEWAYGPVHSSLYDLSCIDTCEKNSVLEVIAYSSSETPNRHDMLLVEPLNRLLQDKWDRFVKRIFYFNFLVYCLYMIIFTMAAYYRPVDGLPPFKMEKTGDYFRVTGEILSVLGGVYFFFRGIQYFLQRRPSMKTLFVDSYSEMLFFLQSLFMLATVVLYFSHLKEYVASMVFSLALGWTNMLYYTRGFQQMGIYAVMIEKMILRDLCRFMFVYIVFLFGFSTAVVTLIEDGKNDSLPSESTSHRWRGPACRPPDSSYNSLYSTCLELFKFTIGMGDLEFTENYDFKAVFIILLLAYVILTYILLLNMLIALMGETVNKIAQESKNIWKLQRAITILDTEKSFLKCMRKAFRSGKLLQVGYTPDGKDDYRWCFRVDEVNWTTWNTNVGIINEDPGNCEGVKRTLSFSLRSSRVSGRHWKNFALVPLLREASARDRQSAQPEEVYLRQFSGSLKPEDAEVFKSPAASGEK
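Cells expressing TRPV1 were dye-loaded with Fluo-8 and read kinetically: 10 s baseline, 3 min after compound (agonist portion), then 2 min after EC20 capsaicin (allosteric enhancer portion). Calcium-bound dye fluorescence at 480/520 nm.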
Sfp PPTase inh – qHTS Assay for Inhibitors of Bacillus subtilis Sfp phosphopantetheinyl transferase (PPTase); actives 3.5% (n = 310,000); Biochemical Sfp PPTase activity, qHTS; Potency, µM, for the others: max response, negative = inhibition, actives largely listed as inhibitors; 4'-phosphopantetheinyl transferase ffp (Bacillus subtilis), Q9F4F7; active = well fitted inhibition curve with a large enough effect; inconclusive = small, poorly fitted or top-dose-only effect, or another doubt; inactive = no such curve, though single readings can be large or run the other way;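 also: the enzyme is Sfp with the accession as filed and its product quenches rhodamine fluorescence; potency is read from the fitted curve at half-maximal effect; 0% = enzyme reaction without inhibitor and -100% = no enzyme wells; top concentration of the series not given in the record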
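After 15 min at room temperature with compound, 15 nM Sfp received 5 uM rhodamine-CoA plus 12.5 uM BHQ-2-ybbR (50 mM Hepes pH 7.6, 10 mM MgCl2). Rate came from the fluorescence difference over 30 min, ex 525/em 598 nm.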
PINK1 expr mod – A Quantitative High throughput Screen to Identify Chemical Modulators of PINK1 Expression; PINK1 immunofluorescence, high-content cytometry, 24 h; Potency, µM (titrated, usually from 76.6 µM), inactives show at the top dose activation (PINK1 increase), usual class: activators; actives 0.2% (n = 410,000); AID 624263, 2012; active = well fitted activation curve with a large enough effect; inconclusive = small, poorly fitted or top-dose-only effect; inactive = flat fitted curve, though single readings scatter; cell line not stated here;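 also: potency is read from the fitted curve at half-maximal effect; % of control where 0% means no effect; nearly all actives have a fitted effect of over 65% in size; a mitochondrial uncoupler was the plate control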
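Cells are seeded, rested 12 hours, then given compound at five concentrations or DMSO for 24 hours. After fixation, blocking and antibody staining, PINK1 amount and mitochondrial localization are scored; CCCP serves as control.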
Active calls of the source: *; ? = inconclusive; · = not tested or not shown; & = joins results of further samples; [ ] = another dose, or the depositor's remark.

SMILES	ClpP mod	TRPML1 inh	TRPML1 ag	Menin-MLL FL inh	TRPV1 potentiator	Sfp PPTase inh	PINK1 expr mod
O=C(Nc1nnc(-c2ccc(Cl)cc2)o1)Nc1ccccc1F	·	16	-0.4	0.8	4	13%	-0.6%
O=C(Nc1cccnc1N1CCOCC1)c1cc2ccccc2oc1=O	-2.7%	-6	-0.4	1.2	-3	0%	0.5%
Cc1cc(=O)n(Cc2ccc(F)cc2Cl)c2c1c(C)nn2C	-2.1%	7	0.9	·	·	·	3.6%
CN1C(=O)N(C)C2C1N(C)S(=O)(=O)N2C (configuration not stated)	-0.6%	-7	-0.5	3.3	-8	29%	2.1%
COc1cccc(-c2cc(C(=O)NCc3ccc(Cl)cc3)no2)c1	-9.6%	19	0.4	0.0	8	10%	-0.4%[38.3 µM]
COc1ccc(-c2cc(CCC(=O)N3CCN(c4cc(C)ccc4C)CC3)on2)cc1	-2.6%	-14	-0.5	·	·	·	0.7%
COC(=O)C1C2CC(C(Br)C2Br)C1C(=O)O (configuration not stated)	·	13	-0.2	·	·	·	5.0%
NC(=S)N/N=C/c1ccc(-c2cc(Cl)c(Cl)cc2Cl)o1	·	-11	-0.6	0.8	-13	0%	0.8%
N/C(CC(=O)NCCOc1ccccc1)=N\O	-0.3%	19	0.4	0.2	4	-6%	9.1%[38.3 µM]
Cn1c(=O)[nH]c(=O)c2c1nc(Br)n2Cc1cccc(Br)c1	·	5	-0.6	-2.2	-12	-2%	-0.3%
CCN1CCN(c2ccc(S(=O)(=O)N3CCCCC3)cc2NC(=O)c2cccc(OC(F)F)c2)CC1	2.3%	37	0.2	·	2	·	0.1%
CC(=O)Nc1nonc1-c1nnc(SCC(=O)Nc2c(C)cccc2C)n1-c1ccccc1	-1.9%	4	-1.1	·	·	·	-1.1%
Cc1ccc(NC(=O)CN2C(=O)S/C(=C\c3ccc(OCC(=O)O)c(Br)c3)C2=O)cc1	-13%	-7	0.3	8.1	-8	-12%	1.4%
CC1CCCCN1CCNC(=O)c1ccc2c(c1)N(Cc1cccc(Cl)c1)C(=O)c1ccccc1S2(=O)=O (configuration not stated)	3.3%	1	3.2	·	·	·	1.9%
CCCCNC(=O)c1ccc(/C=C2\Oc3ccccc3N(C)C2=O)cc1	·	23	0.3	-3.0	-7	8%	5.6%
CC(OC(=O)CCCN=C1NS(=O)(=O)c2ccccc21)C(=O)c1ccccc1 (configuration not stated)	0.8%	30	5.6	·	-22	·	0.6%
O=C(NNc1ccc(O)cc1)c1ccc(Br)cc1	2.6%	17	0.2	1.4	-6	13µM*	0.5%
CCc1ccc2nc(N(CCCN(C)C)C(=O)c3ccc4c(c3)OCCO4)sc2c1	0.4%	28	0.3	-3.6	5	-8%	-0.1%
Cc1nn(S(=O)(=O)c2ccc(C(C)(C)C)cc2)c(C)c1S(=O)(=O)N1CCOCC1	2.4%	24	-0.6	-0.3	6	15%	-0.4%
CC1CCCCN1CC(=O)Nc1ccc2c(c1)OCO2 (configuration not stated)	0.9%	13	1.2	·	-4	·	2.1%
CCOc1ccccc1C(=O)N/N=C/c1coc2ccc(Cl)cc2c1=O	4.3%	-19	1.1	·	-5	19%	1.6%
Cc1cc(=O)n2nc(N3CCCC(C(=O)Nc4ccc(C)c(C)c4)C3)sc2n1 (configuration not stated)	-2.2%	-12	0.1	3.6	?	-16%	0.7%
Cc1ccc(/C=N/NC(=O)c2cccs2)o1	-4.1%	-14	-0.2	3.6	1	4%	0.3%
COc1ccc(CNC(=O)C2CCCN(S(=O)(=O)N(C)c3ccc(F)cc3)C2)cc1OC (configuration not stated)	1.1%	-7	-1.0	·	·	·	3.2%
CCOc1cc(/C=N/Nc2nc(N3CCCCC3)nc(N3CCCCC3)n2)ccc1OC(=O)c1ccco1	0.3%	-9	0.1	-0.4	?	13%	1.2%
CCN1CCN(Cc2c(C(=O)N/N=C(\C)c3ccc(Cl)c(Cl)c3)nnn2-c2nonc2N)CC1	·	·	·	0.7	12	-10%	·
COc1ccc(N(C(=O)c2ccco2)S(=O)(=O)c2cccs2)cc1	-0.2%	39	1.2	-0.5	-9	7%	1.7%
CN(C(=O)CSC(=O)c1ccccc1)c1ccccc1	1.0%	16	0.0	·	5	5%	1.6%
NCCNC(=O)c1ncsc1-c1cccc(F)c1	-2.0%	10	0.3	6.2	·	·	-0.3%
O=C(NCc1ccco1)c1cc(-c2ccccn2)nc2ccccc12	-1.4%	3	-0.1	-2.6	12	-9%	1.8%[38.3 µM]
Nc1ccc(C(=O)N2N=C(c3ccccc3)CC2(O)C(F)(F)F)cc1 (configuration not stated)	-2.5%	-1	1.1	-2.3	26	7%	-1.8%
Cc1csc(-c2cnn(-c3ccccc3)c2NC(=O)c2ccc(C(F)(F)F)cc2)n1	-1.5%	65	-0.2	2.4	-20	17%	1.6%
Cc1ccc(Nc2nc3ccccc3nc2-n2nc(C)cc2C)cc1	-7.1%	-9	-1.1	1.1	7	13%	-0.3%
COc1ccc(NS(=O)(=O)c2cc(NC(=O)c3cc(F)c(F)c(F)c3F)ccc2N2CCCC2)cc1	-5.5%	92	1.7	0.4	11	-1%	-1.2%
CC(=O)Nc1nc(C)c(C(C)C)s1	·	3	-1.1	-1.8	-15	-15%	-0.8%
COC(=O)C1CCN(c2c([N+](=O)[O-])cc(C(F)(F)F)cc2[N+](=O)[O-])CC1	0.5%	10	1.7	-0.4	0	11%	0.4%
COc1cc(Cl)c(C)cc1NC(=O)c1cn(CC(C)C)c(=O)c2cc(OC)c(OC)cc12	-1.2%	22	-0.9	·	·	·	1.4%
O=C1c2cccc3cccc(c23)C(=O)N1CCO	3.7%	-20	-0.5	·	·	·	1.5%
CCN(CC)CCCNC(=O)C1CCC(CNS(=O)(=O)c2c(C)cc(C)cc2C)CC1 (configuration not stated)	-1.1%	-19	3.0	-1.2	-42	6%	-0.8%
CC1CCCN(C(=O)CCS(=O)(=O)c2cc3c(cc2Cl)NC(=O)CO3)C1 (configuration not stated)	0.4%&-2.0%	-2&8	0.0&1.3	0.2	-15	14%	8.0%&0.3%
CCN(CC)C(=O)c1[nH]cnc1C(=O)Nc1ccc(OC)cc1	0.5%	4	-0.6	0.1	-7	5%	-0.8%
O=C(CSc1nc2c([nH]c3ccccc32)c(=O)n1-c1ccc(F)cc1)N1CCc2ccccc21	-15%	2	2.0	·	·	·	-3.3%
COC(=O)c1ccccc1NC(=O)[C@@H]1CCC(=O)N1C1OC(=O)c2c1ccc(OC)c2OC (some centres not stated)	-3.7%	·	·	3.7	0	10%	0.4%
COC(=O)c1c(-c2ccc(F)cc2)noc1N	4.3%	7	0.3	1.1	2	28%	?
S=C(Nc1ccc2nsnc2c1)NC1CCCCC1	-9.6%	-9	0.3	?	22	-91%	8.3%
Cc1ccc(-n2c(C)cc(/C=N/NC(=O)c3ccncc3)c2C)cc1C	·	10	0.5	0.0	1	6%	2.5%
CCOC(=O)C1(N(CC)CC)Sc2cc(C)ccc2NC1=O (configuration not stated)	0.8%	-15	1.8	-2.6	-25	10%	6.7%
COc1ccc(CNC(=O)C(=O)NCC2OCCN2S(=O)(=O)c2ccc(OC)cc2)cc1 (configuration not stated)	0.8%	-5	0.3	·	·	·	3.1%
COc1ccc(C)cc1S(=O)(=O)N1CCCC(C(=O)N2CCN(c3ccccc3)CC2)C1 (configuration not stated)	-1.2%	-9	0.9	1.6	0	2%	-0.3%
CCc1ccc(S(=O)(=O)c2cnc(SCC(=O)Nc3ccc(OC)cc3OC)[nH]c2=O)cc1	0.2%	-23	0.7	·	·	·	1.0%

(listing goes on)
SMILES	ClpP mod	TRPML1 inh	TRPML1 ag	Menin-MLL FL inh	TRPV1 potentiator	Sfp PPTase inh	PINK1 expr mod
Cc1noc(NS(=O)(=O)c2ccc(N3C(=O)c4ccccc4C3=O)cc2)c1C	0.1%	10	-0.4	0.9	18	7%	-1.4%
Cc1ccc2oc(-c3ccc(C)c(NC(=O)c4ccc5c(c4)OCCO5)c3)nc2c1	-3.1%	1	1.5	·	·	·	-0.5%
Cc1cccc(NS(=O)(=O)c2ccc3c(c2)[C@H]2C=CC[C@H]2[C@@H](c2ccc(F)cc2)N3)c1	-6.3%	-1	0.6	·	·	·	0.8%
Cc1nc2nc(-c3ccc(Cl)cc3)nn2c(C)c1Cl	·	·	·	6.8	4	1%	·
COc1ccc2c(=O)ccoc2c1	·	·	·	-5.0	·	2%	1.0%
CN(C)C(=O)c1nnc(Cc2ccc(Cl)cc2)o1	1.0%	15	-0.2	-2.3	4	2%	1.4%
CSc1ccccc1NC(=O)COc1ccccc1C	0.9%	67	2.5	-1.3	-13	-16%	2.7%
O=C(CNC(=O)c1ccc(-c2ccccc2)cc1)Nc1ccc(S(=O)(=O)Nc2ncccn2)cc1	-7.6%	-2	-1.0	2.3	-15	-21%	-0.4%
C/C(CC(=O)Nc1ccc(N(C)C)cc1)=N\NC(=O)c1ccccc1O	-14%	4	-0.4	4.6	-14	1%	2.3%
O=C(NCCN1CCN(Cc2ccccc2)CC1)c1ccc(CS(=O)(=O)c2ccc(Br)cc2)o1	-0.5%	0	0.1	0.3	1	11%	0.2%
CC1C(=O)N(Cc2cn(CC3CCCCC3)nn2)CCS(=O)(=O)N1Cc1ccc(-c2ccncc2)cc1 (configuration not stated)	-1.8%	5	0.8	·	·	·	0.8%
CC(=O)Nc1cccc(C(=O)/C=C/c2ccc(F)cc2)c1	·	32	0.0	-1.4	-18	-24%	2.1%
